# MT1-MMP act inh: MT1-MMP (human) activation inhibition; P50281; HT1080 RFP-PRO-GFP cells, GFP/RFP ratio fluorescence, overnight; percent of plate control window, DMSO zero; GFP/RFP ratio change, % at 20 µM; 0.061% of 360,000 active; AID 651647;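 active = GFP/RFP ratio change of at least 30% with cell ATP level not reduced by more than half and red fluorescence within 50% of control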; note: strong numbers were not always called active
#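 Assay system – RFP-PRO-GFP reporter HT1080 cells · Compound dosing – single dose of 20 µM compound, 1% DMSO final · Incubation – overnight compound exposure at 37 °C · Measure – GFP/RFP fluorescence ratio · Benchmarks – DMSO wells and RFP-L50D-GFP cells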
# eIF4H FP inh: inhibitors of RNA binding by human eIF4H; eIF4H fluorescence polarization binding assay; Q15056; 0.94% of 290,000 active; inhibition, % at 35 µM;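 active = 50% or more with normal probe brightness, or confirmed in later tests; inconclusive = above 50% with abnormal brightness, or retests that disagree; inactive = below 50% or failed in later tests; about a fifth of its hits are not listed in these tables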;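 note: calls also rest on retests at 20 µM and on dose response follow-up; 0% = protein and probe with vehicle and 100% = probe without protein; strong numbers were not always called active; many hits fall short of the cut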
# PABP polyA inh: PABP-poly(A) binding inhibition. 1% of 290,000 active. PABP-poly(A) RNA binding, fluorescence polarization. P11940. inhibition, % at 35 µM;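 active = 50% or more with normal probe brightness, or confirmed in later tests; inconclusive = above 50% with abnormal brightness, or retests that disagree; inactive = below 50% or failed in later tests; about a fifth of its hits are not listed in these tables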;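 note: calls also rest on retests at 20 µM and on dose response follow-up; controls were probe without protein and protein plus probe with vehicle; some compounds called inactive have numbers as strong as hits; many hits fall short of the cut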
# Target sequence (P11940 whole entry, looked up): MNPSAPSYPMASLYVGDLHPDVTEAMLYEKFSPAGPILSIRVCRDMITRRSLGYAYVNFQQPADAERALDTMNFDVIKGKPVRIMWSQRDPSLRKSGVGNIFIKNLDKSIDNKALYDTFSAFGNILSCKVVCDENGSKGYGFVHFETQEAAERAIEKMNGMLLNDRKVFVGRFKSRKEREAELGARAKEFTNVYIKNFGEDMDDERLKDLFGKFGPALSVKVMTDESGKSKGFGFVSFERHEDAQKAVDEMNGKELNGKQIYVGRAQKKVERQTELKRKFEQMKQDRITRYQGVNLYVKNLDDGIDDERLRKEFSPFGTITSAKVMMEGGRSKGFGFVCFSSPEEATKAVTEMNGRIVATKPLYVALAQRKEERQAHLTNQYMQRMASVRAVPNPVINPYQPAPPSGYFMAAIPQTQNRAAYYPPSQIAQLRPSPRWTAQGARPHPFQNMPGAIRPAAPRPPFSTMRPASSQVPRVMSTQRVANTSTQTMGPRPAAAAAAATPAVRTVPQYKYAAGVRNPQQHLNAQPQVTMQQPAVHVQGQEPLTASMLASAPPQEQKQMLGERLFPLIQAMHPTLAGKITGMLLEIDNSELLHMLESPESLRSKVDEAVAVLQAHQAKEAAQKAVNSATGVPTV
# HIV Env fusion: HIV envelope-mediated fusion inhibition | HeLa-JRFL Env/CEM21 cell fusion, luciferase | inhibition, % at 12.3 µM | AID 651610 | 1.1% of 360,000 active;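 active = mean replicate inhibition score of at least 50 and every replicate individually at or above 50; inconclusive = only one of the two criteria met; inactive = mean below 50 and not all replicates reaching 50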;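 note: 0% = plate neutral controls and 100% = maraviroc near 300 nM; one replicate is shown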
# CSC inhib: blocks cancer stem cells | inhibition, % at 7.5 µM | cancer stem cell-like cells viability, luminescence | 1.1% of 300,000 active;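 active = mean at 75% or more and at least half the replicates too; inconclusive = mean and replicates disagree; tested in HMLE shEcad cells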;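 note: 0% = median of negative and 100% = median of positive control wells; the first replicate is given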
# UUG fidelity: modulators of start codon recognition fidelity in yeast; AID 602363; 0.13% of 350,000 active; S. cerevisiae UUG-firefly luciferase reporter, luminescence/redox ratio; activity score, % at 18.7 µM;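 active = replicate mean at a twofold rise or more, about +100% in these data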;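 note: firefly luciferase made from a UUG start codon reports start codon fidelity; reporter light over untreated wells divided by growth signal over untreated wells; some hits fall short of that in this replicate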
# Rce1 inhib: blocks yeast Ras-converting enzyme; AID 2563; 0.27% of 290,000 active; calls only; yeast membranes, quenched prenylated peptide cleavage fluorescence; Q03530;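 active = fall in fluorescence gain of 50% or more versus controls, with final raw signal at or below 3038400; inconclusive = same 50% fall but final raw signal above 3038400; inactive = fall in fluorescence gain under 50%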;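 note: plate controls were neutral control wells for no effect and wells lacking membranes for full effect; tested at 10 µM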
# eIF4H FP inh retest: recorded beside eIF4H FP inh, whose call it bears; inhibition, %; compound at 20 µM; confirmation average;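 mean of two retest wells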
# PABP polyA inh retest: second read-out of PABP polyA inh, no call of its own (marks repeat the call); inhibition, %; compound at 20 µM; confirmation repeats;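 mean of two retest wells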
# MT1-MMP act inh RFP: further read-out of MT1-MMP act inh, marked with its call; RFP signal change, %; measured here: RFP expression control read;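 0 = vehicle wells; hits needed this value within 50% of zero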
# * = called active by the depositor; i = inactive; ? = inconclusive; . = no result given.
SMILES,MT1-MMP act inh,MT1-MMP act inh RFP,eIF4H FP inh,PABP polyA inh,HIV Env fusion,CSC inhib,UUG fidelity,Rce1 inhib,others
O=C(C[n+]1cccc(CNC(=O)c2ccc(OC(F)F)cc2)c1)Nc1ccccc1Cl,1,3,-6,-11,-50,-17,-6,i,
Cc1ccc(NC(=O)C(C)N2C(=O)c3ccccc3C2=O)cc1C (stereo not given),-1,-1,-12,-1,-9,-15,-12,i,
CC(C)C12CN3CC(C(C)C)(CN(C1)C3(C)C)C2=O,-1,4,4,-1,-6,-10,-9,i,
COc1cccc(NC(=O)CN(C)C(=O)CCSc2ccc(C)cc2)c1,1,0,.,.,-16,.,-7,.,
COc1ccc(C2CC(c3ccc(F)cc3)=NN2c2ccccc2)cc1OC (stereo not given),-11,-6,107,20,10,20,-11,i,eIF4H FP inh retest=-8;PABP polyA inh retest=32
O=C(CP(=O)(c1ccccc1)c1ccccc1)N/N=C/c1cc(Br)cc(Br)c1O,-3,-7,12,1,.,.,.,i,
CC(=O)COc1ccc2c(-c3ccccc3)cc(=O)oc2c1,2,2,0,-2,.,-11,-4,i,
CC(C)C[C@H]1CNC(=S)N1C[C@H]1CCCN1C[C@H](Cc1ccc(O)cc1)N1C[C@H](Cc2ccc(O)cc2)N(CCc2ccccc2)C1=S,-11,-11,.,.,-58,.,-14,.,
COc1ccccc1N1CCN(S(=O)(=O)c2cc3[nH]c(=O)c(=O)[nH]c3cc2C)CC1,0,3,20,7,17,-14,17,i,
Cc1ccc(CN(c2ccc(C(=O)NCc3ccccn3)cc2)S(C)(=O)=O)cc1,2,0,-1,-4,-14,.,-11,.,
CCN(CC)CCn1c(=N)n(CC(O)c2ccco2)c2ccccc21 (stereo not given),-3,-1,11,-8,2,-7,.,i,
CCOc1ccccc1C1C(C(=O)OC)=C(N)OC2=C1C(=O)CCC2 (stereo not given),0,3,-6,5,.,.,-12,i,
Cc1ccc(S(=O)(=O)N[C@@H](Cc2ccccc2)C(=O)N2CCC[C@@H]2C(=O)O)cc1,2,4,-4,-1,-1,-17,-1,i,
O=C(CCn1c(=S)[nH]c2cc3c(cc2c1=O)OCO3)NCc1cccc(Cl)c1,-1,2,2,-4,-2,1,-22,i,
CC(C)(C)S(=O)N1Cc2cc(C(=O)N[C@@H]3CCN(Cc4ccccc4)C3)nc(-c3cccc(-c4cc5ccccc5o4)c3)c2[C@@H]1CCO (stereo not given in full),-6,-12,.,.,23,.,15,.,
Cc1cc(C)cc(N=Cc2c(O)c3ccccc3oc2=O)c1,-12,-3,-7,-6,13,-4,.,i,
O=C(COC(=O)c1cc(S(=O)(=O)N2CCOCC2)ccc1Cl)Nc1ccc(Cl)cn1,3,2,.,.,7,.,-7,.,
CC(=O)NCCOC(=O)c1nn(Cc2ccccc2)c(=O)c2ccccc12,6,7,21,7,-10,.,1,i,
CC(=O)Nc1cc(-c2cccc(C(=O)NCCO)c2)cn2c(-c3ccc(F)c(Cl)c3)cnc12,-2,-1,.,.,4,.,-7,.,
CCCCCCCCN1[C@@H](CC(=O)OCC)c2cc(F)ccc2S1(=O)=O,2,-12,.,.,13,10,15,i,
Cc1cc(-c2cccc([N+](=O)[O-])c2)nc2ccc3ccccc3c12,-3,0,-11,-5,-35,-6,-11,i,
CC(=O)c1cc(CC=C(C)C)c(O)cc1O,-9,-4,-13,1,.,7,-16,.,
Oc1cc2ccccc2cc1-c1nnc2n1-c1ccccc1SC2,-3,-7,4,-4,.,-8,-6,i,
Nc1ccc(C(=O)O)cc1[N+](=O)[O-],4,-1,1,1,8,-11,-13,i,
C/C(=N\NC(=O)CCCCCNC(=O)c1ccccc1)c1ccccc1O,6,8,-6,1,15,-12,.,i,
CC1CCN(Cc2nnnn2CCCC(=O)N(C)C2CCOC2)CC1 (stereo not given),-3,1,-2,4,4,-11,-8,i,
CCOc1ccc(CC(=O)N2CCN=C2SC)cc1,-2,-1,-5,58*,13,2,.,i,
CCc1ccc(/C=C2\SC(=S)N(CCCC(=O)NCCCN3CCOCC3)C2=O)cc1,-4,-4,.,.,52,.,-46,.,
O=C(CSc1n[nH]c(-c2cccs2)n1)N1CCOCC1,15,-4,.,.,-22,-19,-10,.,
COc1ccc(NC(=O)CSc2ccc(-c3sc(C)nc3C)nn2)cc1OC,6,-1,-5,0,i,-1,-3,i,
Cc1sc(NC(=O)/C=C/c2ccco2)c(C(=O)OC(C)C)c1C,1,6,5,-4,-1,0,.,i,
CC(C)[C@H](NC(=O)N1CC(=O)Nc2ccccc21)C(=O)N1CCC[C@H]1C(=O)O,-2,2,0,5,.,2,-15,i,
O=C(c1ccc2ccccc2c1)N1CCN(c2ccc(C(F)(F)F)cn2)CC1,5,-6,7,-5,.,-6,-3,i,
COc1ccc(OCC(=O)Nc2ccc(N3CCCCC3)cc2)cc1,6,9,-3,-8,31,12,.,i,
CCOc1cc(N2CCOCC2)c(OCC)cc1NC(=O)COC(=O)CCOc1ccc(C(C)(C)C)cc1,0,6,.,.,-7,-6,3,i,
COc1ccc(NC(=O)CN(C)CC(=O)Nc2ccccc2SC)cc1,1,4,0,0,7,-6,-17,i,
O=C(O)c1cc2cc(Cl)cc(Cl)c2oc1=O,-4,-3,-4,42,.,36,-16,i,
NC(=O)CNC(=O)c1ccc(Cl)cc1,-1,1,-3,-3,-1,.,.,i,
O=S(=O)(/N=C(/Nc1nccs1)c1ccc(F)cc1)c1ccccc1,-4,-1,.,.,-14,-10,-14,.,
Cc1ccc2oc(C(=O)N(C)CCC(O)c3ccccc3)c(C)c2c1 (stereo not given),1,-1,-21,2,15,-8,-9,i,
COc1ccc(C)cc1Nc1n[n+](C)c(-c2c3ccccc3cc3ccccc23)s1,-4,1,-3,12,?,-2,-11,i,
Cc1ccc(C(=O)N2CCCC2)cc1S(=O)(=O)N1CCOCC1,2,4,2,9,3,-5,-15,i,
Cc1ccc(NC(=O)C2CCCO2)cc1[N+](=O)[O-] (stereo not given),2,5,-5,4,1,-15,-3,i,
COc1ccc(C(=O)N2CC3(CC(c4cccc(NC(=O)COc5ccc(Cl)cc5)c4)=NO3)C[C@@H]2C(N)=O)cc1 (stereo not given in full),2,-3,-2,3,16,.,-12,i,
COc1cccc2cc(C(=O)Nc3cccnc3N3CCOCC3)c(=O)oc12,13,0,3,-5,.,-19,3,i,
CC(=O)Nc1ccc(NC(=O)CSc2ccc(-c3sc(C)nc3C)nn2)cc1,0,5,-11,-15,-7,2,-2,i,
COC(=O)C1C(c2ccccc2)C=CC(c2ccccc2)C1C(=O)O (stereo not given),-1,2,-9,-6,7,-2,.,i,
COc1cc(C(C)=O)ccc1OCC(=O)NCCCn1nc(C)cc1C,3,5,.,.,-12,-9,-10,.,

# The list goes on (two carried over from the part before).
SMILES,MT1-MMP act inh,MT1-MMP act inh RFP,eIF4H FP inh,PABP polyA inh,HIV Env fusion,CSC inhib,UUG fidelity,Rce1 inhib,others
COC(=O)C1C(c2ccccc2)C=CC(c2ccccc2)C1C(=O)O (stereo not given),-1,2,-9,-6,7,-2,.,i,
COc1cc(C(C)=O)ccc1OCC(=O)NCCCn1nc(C)cc1C,3,5,.,.,-12,-9,-10,.,
Cc1ccccc1NC(=O)CCC(=O)N/N=C/c1cc([N+](=O)[O-])ccc1O,5,0,14,-3,9,10,-13,i,
COc1cc(/C=N/N2CCN(C3c4ccccc4-c4ccccc43)CC2)cc(OC)c1O,5,2,-9,-11,14,26,.,i,
Cc1nnc(C)c2c(C)n(C(c3ccccc3)c3ccccc3)c(C)c12,-10,4,0,-17,.,14,6,i,
COc1cccc(NC(=O)COc2ccc(S(=O)(=O)NC(C)C)cc2)c1,3,4,1,5,.,.,-14,.,
O=C1OC[C@@H]2CCCN2C(=O)[C@H](CC(=O)N(CCO)Cc2ccccc2)C/C=C\CC[C@@H]1Cc1ccc(F)cc1,7,-3,.,.,-14,-12,12,.,
CCOc1ccc(N2CC(C(=O)Nc3ccccc3N3CCCC3)CC2=O)cc1 (stereo not given),-3,1,0,5,1,-19,-9,i,
Cc1ccc(C(=O)Nc2nc(C)c(C(=O)Nc3ccc4c(c3)CCC4)s2)cc1,-5,-13,-12,0,-362,81*,-17,i,
Cc1nnc(SCC(=O)c2ccc(S(=O)(=O)N3CCOCC3)cc2)n1-c1ccccc1,-2,1,-5,5,-35,-12,-23,i,
COc1ccc(-c2nnn(CC(=O)N(CC(=O)NCCC(C)C)c3ccccc3)n2)cc1OC,-1,-6,-7,2,14,2,1,i,
COc1ccc(/C=C/CN2CCC(n3nccc3NC(=O)C3CCCC3)CC2)cc1,1,2,-3,0,9,-7,5,i,
O=C(O)C1CC(=O)N(C2CCCCCC2)C1 (stereo not given),4,4,-4,-3,.,-5,-11,.,
CCOC(=O)c1noc(C)c1C(=O)Nc1nc(C)cc(C)n1,-1,2,6,2,-6,.,.,i,
O=c1c(Cc2c(F)cccc2Cl)c(O)ccn1C1CC1,1,2,0,6,-13,-2,.,i,
Cc1cc(C)cc(NC(=O)CSc2nnc(-c3ccncc3)o2)c1,1,2,.,.,4,.,-15,i,
CCNC(=O)N(C)C[C@H]1N[C@@](CC)(C(=O)OC)[C@H]2C(=O)N(C)C(=O)[C@@H]12,5,5,.,.,8,-4,2,.,
CC(=O)OCC=C1CCC2C3CCC4=CC(=O)CCC4(C)C3C(O)CC12C (stereo not given),0,-3,.,.,-182,.,-17,.,
O=C(COC(=O)/C=C/c1ccc([N+](=O)[O-])cc1)NCc1cccs1,1,3,.,.,.,2,-13,.,
COC(=O)c1cccc(N2CCCC2=O)c1,3,6,-6,-6,-18,3,-23,i,
CCOC(=O)N1CCN(C(=O)CN(Cc2ccccc2)S(C)(=O)=O)CC1,-4,3,2,-5,.,-11,-8,i,
CN(C)S(=O)(=O)c1ccc(N2CCCC2)c(C(=O)N2CCN(S(=O)(=O)c3ccccc3F)CC2)c1,-2,0,.,.,-5,-14,.,i,
CN(CCC#N)C(=O)COC(=O)c1ccccc1OCc1ccccc1Cl,3,1,1,-9,5,8,.,i,
Cc1cc(C(=O)OCC(=O)NC2CCCCC2C)c2ccccc2n1 (stereo not given),6,-6,.,.,.,-7,-8,.,
COc1ccc(-c2cn3c(n2)CCC3)cc1,-1,-4,14,-13,-38,-3,-4,i,
COc1cc(OC)cc(C(=O)NCc2n[nH]c(=S)n2-c2ccccc2)c1,0,1,-2,4,-46,-10,.,i,

# 3 compounds picked at random from the list so far, as already listed:
SMILES,MT1-MMP act inh,MT1-MMP act inh RFP,eIF4H FP inh,PABP polyA inh,HIV Env fusion,CSC inhib,UUG fidelity,Rce1 inhib,others
Cc1cc(C)cc(NC(=O)CSc2nnc(-c3ccncc3)o2)c1,1,2,.,.,4,.,-15,i,
CCOc1ccc(CC(=O)N2CCN=C2SC)cc1,-2,-1,-5,58*,13,2,.,i,
Cc1ccc(NC(=O)C(C)N2C(=O)c3ccccc3C2=O)cc1C (stereo not given),-1,-1,-12,-1,-9,-15,-12,i,

# Further results follow.
SMILES,MT1-MMP act inh,MT1-MMP act inh RFP,eIF4H FP inh,PABP polyA inh,HIV Env fusion,CSC inhib,UUG fidelity,Rce1 inhib,others
CC(=O)NCCC(=O)Nc1cc(F)ccc1C,2,4,-15,-4,.,-9,-14,i,
CC(=O)OC1COC(N2CCc3ccccc32)C(OC(C)=O)C1OC(C)=O (stereo not given),3,4,26,-5,.,-15,.,i,
O=C(CCn1ccc([N+](=O)[O-])n1)Nc1nccs1,1,-1,-3,4,3,11,.,i,
COc1ccc(N2CCN(C(=O)c3ccc(NS(=O)(=O)c4ccccc4)cc3)CC2)cc1,-3,-11,-4,17,.,0,-3,i,

# From PubChem BioAssay

# An excerpt; the hit share may differ from the screen's.
